High-throughput results as filed in PubChem.
UUG fidelity: alters start codon recognition fidelity in yeast. S. cerevisiae UUG-firefly luciferase reporter, luminescence/redox ratio. activity score, % at 18.7 µM. 350,000 compounds, 0.13% hits. AID 602363;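 active = replicate mean at a twofold rise or more, about +100% in these data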;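 also: firefly luciferase made from a UUG start codon reports start codon fidelity; reporter light over untreated wells divided by growth signal over untreated wells; some hits fall short of that in this replicate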
Active calls of the source: *. An excerpt (hit frequency here may not be typical).

structure,UUG fidelity
O=C(C[C@H]1CC[C@@H]2[C@H](COC[C@H](O)CN2S(=O)(=O)c2ccc(Cl)cc2)O1)NCc1ccc(Cl)c(Cl)c1,4
O=C(C[C@H]1CC[C@H]2[C@@H](COC[C@@H](O)CN2Cc2cccc(F)c2)O1)NCC1CCCCC1,-7
COc1ccc(NC(=O)N2C[C@H]3[C@@H](c4ccccc42)[C@@H](CO)N3C(=O)C2CCCCC2)cc1,15
COc1ccc(-c2ccc([C@@H]3[C@@H](CO)N4CCCCN(C(=O)c5ccc6c(c5)OCO6)C[C@@H]34)cc2)cc1,20
C[C@H](CO)N1C[C@H](C)[C@H](CN(C)S(=O)(=O)c2ccc(Cl)cc2)Oc2ccc(NC(=O)Nc3ccccc3)cc2C1=O,-3
CC(C)NC(=O)Nc1cccc2c1O[C@@H](CN(C)Cc1ccc(C(F)(F)F)cc1)[C@@H](C)CN([C@@H](C)CO)C2=O,-3
CCCC(=O)Nc1ccc2c(c1)C(=O)N(C)C[C@H](OC)[C@@H](C)CN(Cc1ccccc1F)[C@@H](C)CO2,-1
COCC(=O)Nc1ccc2c(c1)OC[C@H](C)N(C(=O)Cc1ccccn1)C[C@H](C)[C@H](OC)CN(C)C2=O,-2
C[C@H](O)C#Cc1ccc([C@@H]2[C@H]3CN(C(=O)c4ccncc4)CCCCN3[C@H]2CO)cc1,12
COc1cccc(NC(=O)N2[C@H](CO)[C@H](c3ccccc3)[C@H]2CNCC(C)C)c1,-15
C[C@@H]1CN([C@H](C)CO)C(=O)c2cccc(NC(=O)C3CCCCC3)c2O[C@H]1CN(C)S(=O)(=O)c1ccccc1,2
C[C@@H]1CN([C@H](C)CO)C(=O)c2cccc(NC(=O)Nc3ccc(F)cc3)c2O[C@H]1CN(C)Cc1ccc(C(=O)O)cc1,14
CC(C)NC(=O)N1CCCCN2[C@@H](CO)[C@H](c3ccc(C#C[C@H](C)O)cc3)[C@@H]2C1,5
C[C@H]1CN([C@@H](C)CO)C(=O)Cc2cc(NC(=O)c3ccncc3)ccc2O[C@H]1CN(C)S(=O)(=O)c1ccccc1,12
COc1ccccc1CN1[C@H](CO)[C@@H]2c3ccccc3N(C(=O)C3CCCCC3)C[C@@H]21,3
Cc1ccc(S(=O)(=O)N2CC[C@@H]3[C@@H](CO)N(C)c4ccc(-c5ccccc5F)cc4[C@@H]32)cc1,9
CO[C@H]1CN(C)C(=O)c2cc(NC(=O)c3nc4ccccc4s3)ccc2OC[C@@H](C)NC[C@@H]1C,1
COc1ccc(NC(=O)N2C[C@H](O)COC[C@@H]3O[C@H](CC(=O)NCc4ccncn4)CC[C@H]32)cc1,-4
COc1ccc(NC(=O)N2CCCCN3[C@H](C2)[C@H](c2ccc(-c4ccccc4C)cc2)[C@@H]3CO)cc1,-1
O=C(Nc1ccccc1)N1CCCCN2[C@H](CO)[C@@H](c3ccc(-c4ccccc4F)cc3)[C@@H]2C1,6
C[C@@H]1CN([C@H](C)CO)C(=O)c2cc(NC(=O)Nc3cccc4ccccc34)ccc2O[C@@H]1CN(C)S(=O)(=O)c1cccs1,10
C[C@H]1CN([C@@H](C)CO)C(=O)CCCn2cc(nn2)CO[C@@H]1CN(C)Cc1ccccc1C(=O)O,3
O=C(c1cccnc1)N1C[C@H]2[C@@H](c3ccccc31)[C@H](CO)N2C(=O)Nc1cccc(F)c1,17
COc1ccc(S(=O)(=O)Nc2ccc3c(c2)C(=O)N([C@H](C)CO)C[C@@H](C)[C@H](CN(C)CC2CC2)O3)cc1,23
O=S(=O)(c1cccc(F)c1)N1CC[C@@H]2[C@@H](CO)Nc3ccc(-c4cccc(F)c4)cc3[C@@H]21,7
C[C@@H](O)C#Cc1ccc([C@H]2[C@H](CO)N3CCCCN(S(=O)(=O)c4ccccc4)C[C@@H]23)cc1,32
COc1ccc(C#Cc2ccc([C@@H]3[C@H](CO)N4CCCCN(C)C[C@@H]34)cc2)cc1,-1
CC(=O)N1[C@H](CN(C(=O)c2cccc(F)c2)C(C)C)[C@H](c2ccccc2)[C@@H]1CO,13
O=C(NC[C@H]1[C@H](c2ccccc2)[C@@H](CO)N1Cc1ccccn1)C1CCCC1,18
C[C@H](CO)N1C[C@H](C)[C@@H](CN(C)S(=O)(=O)c2ccc(F)cc2)Oc2ccc(NS(=O)(=O)c3cn(C)cn3)cc2C1=O,0

In another format: results already given.
Molecule: CCCC(=O)Nc1ccc2c(c1)C(=O)N(C)C[C@H](OC)[C@@H](C)CN(Cc1ccccc1F)[C@@H](C)CO2
  UUG fidelity: -1

Molecule: COCC(=O)Nc1ccc2c(c1)OC[C@H](C)N(C(=O)Cc1ccccn1)C[C@H](C)[C@H](OC)CN(C)C2=O
  UUG fidelity: -2

Molecule: C[C@H](O)C#Cc1ccc([C@@H]2[C@H]3CN(C(=O)c4ccncc4)CCCCN3[C@H]2CO)cc1
  UUG fidelity: 12

Molecule: COc1cccc(NC(=O)N2[C@H](CO)[C@H](c3ccccc3)[C@H]2CNCC(C)C)c1
  UUG fidelity: -15

In the list so far, 2 have two or more sulfur atoms:
structure,UUG fidelity
C[C@@H]1CN([C@H](C)CO)C(=O)c2cc(NC(=O)Nc3cccc4ccccc34)ccc2O[C@@H]1CN(C)S(=O)(=O)c1cccs1,10
C[C@H](CO)N1C[C@H](C)[C@@H](CN(C)S(=O)(=O)c2ccc(F)cc2)Oc2ccc(NS(=O)(=O)c3cn(C)cn3)cc2C1=O,0

New compounds follow
structure,UUG fidelity
Cc1ccc(-c2cnc3c(c2)C(=O)N([C@@H](C)CO)C[C@@H](C)[C@H](CN(C)CC2CCCCC2)O3)cc1,13
C[C@@H]1CN([C@@H](C)CO)C(=O)c2c(c3ccccc3n2C)-c2ccccc2CO[C@@H]1CN(C)Cc1ccncc1,-11
CCCNC(=O)C[C@H]1CC[C@@H]2[C@H](COc3ccc(NC(=O)NC(C)C)cc3C(=O)N2C)O1,-7
CCCN(C)C[C@@H]1OCc2cnnn2CCCC(=O)N([C@@H](C)CO)C[C@@H]1C,-11
CN1C(=O)c2cc(NC(=O)NCc3ccccc3)ccc2OC[C@H]2O[C@@H](CC(=O)NCC3CCCCC3)CC[C@H]21,3
CO[C@@H]1CN(C)C(=O)c2ccc(NC(C)=O)cc2OC[C@@H](C)N(C(=O)C2CCOCC2)C[C@@H]1C,5
O=C(C[C@@H]1CC[C@H]2[C@@H](COC[C@H](O)CN2S(=O)(=O)c2ccc(F)cc2)O1)NCCN1CCCCC1,-12
C[C@H]1CN([C@@H](C)CO)C(=O)c2cccc(NS(=O)(=O)c3cn(C)cn3)c2O[C@H]1CN(C)C(=O)Nc1cccc2ccccc12,5
COc1ccc(CN(C)C[C@@H]2Oc3ccc(NC(=O)c4ccncc4)cc3C(=O)N([C@H](C)CO)C[C@H]2C)cc1,-2
C/C=C/c1ccc([C@H]2[C@@H](CO)N(Cc3ccccn3)[C@@H]2CNC(=O)CC)cc1,-18
Cc1ccccc1-c1ccc([C@H]2[C@H](CO)N3CCCCN(CC4CC4)C[C@@H]23)cc1,-8
CCNC(=O)C[C@@H]1CC[C@H]2[C@@H](COC[C@@H](O)CN2Cc2ccc(Cl)c(Cl)c2)O1,-6
CCCN(C[C@H]1[C@@H](c2ccccc2)[C@H](CO)N1C(C)=O)C(=O)NC(C)C,1
COc1ccc(NC(=O)N(C)C[C@@H]2Oc3c(NS(=O)(=O)c4cccs4)cccc3C(=O)N([C@H](C)CO)C[C@H]2C)cc1,1
CCC(=O)N1CCCCN2[C@H](CO)[C@@H](c3ccc(C#Cc4ccccc4)cc3)[C@@H]2C1,-11
C[C@@H](NC(=O)C[C@@H]1C[C@H]2c3cc(NC(=O)CC4CC4)ccc3O[C@H]2[C@@H](CO)O1)c1ccccc1,1
O=C(C[C@H]1CC[C@H]2[C@@H](COC[C@@H](O)CN2C(=O)Nc2ccc(Cl)cc2)O1)NCc1ccncn1,-7
Cc1cc(C(=O)Nc2cccc3c2O[C@H](CN(C)Cc2ccc(-c4ccccc4)cc2)[C@@H](C)CN([C@H](C)CO)C3=O)n(C)n1,1
C[C@@H]1CN([C@@H](C)CO)C(=O)c2cc(NC(=O)Nc3ccc(C(F)(F)F)cc3)ccc2O[C@H]1CN(C)C(=O)Nc1ccccc1,7
CO[C@H]1CN(C)C(=O)c2cc(NS(=O)(=O)CC(F)(F)F)ccc2OC[C@@H](C)N(Cc2cccnc2)C[C@H]1C,-1
Cc1cccc(S(=O)(=O)N(C)C[C@H]2OCc3ccccc3-c3ccccc3C(=O)N([C@H](C)CO)C[C@H]2C)c1,6
N#Cc1ccc(-c2ccc([C@@H]3[C@@H](CO)N4CCCCN(S(=O)(=O)c5ccccc5)C[C@H]34)cc2)cc1,-14
O=C(/C=C/[C@H]1O[C@@H](n2ccc(=O)[nH]c2=O)[C@H](O)[C@@H]1O)NCCN1CCCCC1,-4
CO[C@@H]1CN(C)C(=O)c2ccc(NC(=O)C3CC3)cc2OC[C@@H](C)N(C(=O)CN(C)C)C[C@@H]1C,-15
CN(C)C(=O)c1cccc(-c2ccc3c(c2)[C@H]2[C@H](CCN2S(=O)(=O)c2cn(C)cn2)[C@@H](CO)N3)c1,-6
Cc1cccc(S(=O)(=O)N2CC[C@@H]3[C@H](CO)N(C)c4ccc(-c5ccc(C#N)cc5)cc4[C@@H]32)c1,-4
CCC(=O)N1[C@H](CO)[C@@H](c2ccc(C3=CCCC3)cc2)[C@@H]1CN(C)C(C)=O,9
O=C(C[C@H]1CC[C@@H]2[C@H](COC[C@H](O)CN2C(=O)Nc2ccc(Cl)c(Cl)c2)O1)NCc1ccccc1,0
CNC[C@H]1Oc2c(NC(=O)Nc3ccc(F)cc3)cccc2C(=O)N([C@H](C)CO)C[C@@H]1C,-11
O=C(c1cccnc1)N1C[C@@H]2[C@H](c3ccccc31)[C@H](CO)N2C(=O)Nc1cccc(F)c1,91
CC(=O)N1[C@@H]2c3ccc(C4=CCCC4)c(=O)n3C[C@@H]2[C@@H](CO)[C@@H]1C(=O)N1CCCCC1,3
CN1CCN(C(=O)C[C@H]2CC[C@H]3[C@@H](COC[C@H](O)CN3Cc3cccc(-c4ccncc4)c3)O2)CC1,-13
Cc1ccc(S(=O)(=O)N(C)C[C@@H]2Oc3ccc(NC(=O)CCCN(C)C)cc3C(=O)N([C@@H](C)CO)C[C@H]2C)cc1,-6
O=C(Nc1ccccc1)N1CCCCN2[C@H](C1)[C@H](c1ccc(C#Cc3cccnc3)cc1)[C@@H]2CO,0
O=C(Nc1ccc(F)cc1)N1CCCCN2[C@H](CO)[C@@H](c3ccc(-c4ccccc4F)cc3)[C@H]2C1,2
COc1ccc(NC(=O)N(C)C[C@@H]2Oc3c(NC(=O)c4cnccn4)cccc3C(=O)N([C@H](C)CO)C[C@H]2C)cc1,-5
CO[C@@H]1CN(C)C(=O)c2cc(NC(C)=O)ccc2OC[C@H](C)N(C(=O)Cc2cccnc2)C[C@@H]1C,-3
CCC(=O)N1[C@H](CO)[C@H]2c3ccccc3N(S(=O)(=O)c3ccc(F)cc3)C[C@H]21,-6
O=C(C[C@@H]1CC[C@@H]2[C@H](COC[C@@H](O)CN2Cc2cccc(F)c2)O1)NCCc1ccncc1,-6
CC(C)NC(=O)N(C)C[C@H]1Oc2ccc(NC(=O)Cc3cn(C)c4ccccc34)cc2C(=O)N([C@@H](C)CO)C[C@@H]1C,10
CC(C)(O)C#Cc1ccc([C@@H]2[C@H]3CN(S(C)(=O)=O)CCCCN3[C@H]2CO)cc1,3
C[C@H](NC(=O)[C@H]1[C@H](CO)[C@H]2Cn3c(cccc3=O)[C@@H]1N2C(=O)C1CC1)c1ccccc1,0
CN1c2ccc(-c3cccc(F)c3)cc2[C@@H]2[C@@H](CCN2C(=O)c2ccncc2)[C@@H]1CO,-7
CC(=O)NC[C@H]1[C@H](c2ccc(-c3ccccc3F)cc2)[C@@H](CO)N1C(=O)C1CC1,9
C[C@@H]1CN([C@H](C)CO)C(=O)c2cccc(NS(=O)(=O)c3ccc(F)cc3)c2O[C@H]1CN(C)Cc1ccc(C(=O)O)cc1,36
Cc1ccc(S(=O)(=O)Nc2ccc3c(c2)CC(=O)N([C@H](C)CO)C[C@@H](C)[C@H](CN(C)Cc2ccccc2)O3)cc1,-13
CN(C)C(=O)c1ccc(-c2ccc([C@H]3[C@H](CO)N4CCCCN(Cc5cncnc5)C[C@@H]34)cc2)cc1,-4
O=C(C[C@H]1C[C@H]2c3cc(NS(=O)(=O)c4ccccc4)ccc3O[C@H]2[C@H](CO)O1)N1CCCCC1,11
COCC(=O)N1CC[C@@H]2[C@H](CO)Nc3ccc(-c4cccc(C(=O)N(C)C)c4)cc3[C@@H]21,-4
CO[C@@H]1CN(C)C(=O)c2cc(NC(=O)C3CCC3)ccc2OC[C@H](C)N(C(=O)CN(C)C)C[C@H]1C,-5
CO[C@@H]1CN(C)C(=O)c2ccc(NC(=O)Nc3ccccc3F)cc2OC[C@H](C)N(C)C[C@@H]1C,18
C[C@@H]1CN([C@H](C)CO)C(=O)c2cc(NS(=O)(=O)c3ccc(F)cc3)ccc2O[C@@H]1CN(C)Cc1ccncc1,3
CCCN1C[C@@H](C)[C@H](OC)CN(C)C(=O)c2cc(NC(=O)C3CC3)ccc2OC[C@H]1C,12
O=S(=O)(Cc1ccccc1)N1CCCCN2[C@H](CO)[C@H](c3ccc(-c4ccccc4)cc3)[C@@H]2C1,5
CC=Cc1ccc2n(c1=O)C[C@H]1[C@H](CO)[C@@H](C(=O)NCc3ccccc3F)N(CC)[C@@H]21 (mixture of isomers),12
CCNC(=O)C[C@H]1CC[C@H]2[C@@H](COC[C@@H](O)CN2C(=O)c2cccnc2)O1,-5
